Assay outcomes: PubChem, several laboratories
MT1-MMP txn act: MT1-MMP promoter reporter activation – cell-based, luciferase luminescence, primary screen | HT1080 MT1-MMP promoter luciferase reporter, overnight; stronger effect = higher value | activation factor at 10 µM | hit rate 0.16% among 86,000;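 active means activation factor of at least 2 for MT1-MMP transcription at 10 µM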
ERa SRC1 pot: enhancers of ERα–SRC-1 coactivator binding, primary screen, biochemical, TR-FRET, ERα LBD, low estradiol | Estrogen receptor (Homo sapiens), P03372 | TR-FRET ERalpha-LBD/SRC-Cy5 coactivator binding, 2 h; 100 = basal binding, no effect | coactivator binding (% of control), % at 25.6 µM | hit rate 1.3% among 86,000 | AID 639, 2007; in the data active means activity above about 200%;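 further: binding measured in presence of low estradiol as agonist stimulus; 0% = peptide alone without receptor and 100% = receptor with peptide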
Target sequence (P03372 whole entry, looked up, the tested form may be a part): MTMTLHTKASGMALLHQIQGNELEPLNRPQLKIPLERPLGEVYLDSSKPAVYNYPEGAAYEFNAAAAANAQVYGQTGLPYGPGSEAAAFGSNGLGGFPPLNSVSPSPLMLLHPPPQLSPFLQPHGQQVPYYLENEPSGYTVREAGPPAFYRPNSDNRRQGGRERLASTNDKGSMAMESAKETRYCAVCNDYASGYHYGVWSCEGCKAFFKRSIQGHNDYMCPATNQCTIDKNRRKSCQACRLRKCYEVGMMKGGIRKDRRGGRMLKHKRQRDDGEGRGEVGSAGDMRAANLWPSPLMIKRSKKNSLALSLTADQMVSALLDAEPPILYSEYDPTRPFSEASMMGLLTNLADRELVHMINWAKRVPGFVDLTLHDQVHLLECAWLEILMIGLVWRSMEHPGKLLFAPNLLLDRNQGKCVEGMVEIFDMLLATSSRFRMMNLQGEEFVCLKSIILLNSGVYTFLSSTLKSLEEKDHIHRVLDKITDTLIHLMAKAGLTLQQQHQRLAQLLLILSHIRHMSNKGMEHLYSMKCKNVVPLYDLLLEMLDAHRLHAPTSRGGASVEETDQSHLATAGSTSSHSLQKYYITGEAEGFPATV
E coli WT exp: growth inhibitors of wild-type E. coli, primary screen, strain BW25113, expanded library, OD600. OD600 absorbance. AID 710, 2007. growth inhibition, % at 100 µM. hit rate 0.15% among 98,000;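 active means growth inhibition above about 50% at one test dose, limit read from the data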;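 further: growth measured after 20 h incubation at 37 °C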
ERa coact inh: ERα–SRC-1 coactivator interaction inhibitors, primary screen, biochemical, TR-FRET, ERα LBD, estradiol-bound. Estrogen receptor (Homo sapiens), P03372. TR-FRET ER-alpha LBD / SRC-1 peptide. inhibition, % at 25.6 µM. hit rate 1.7% among 86,000. AID 629, 2007; in the data active means inhibition above about 50%;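 further: 0% = receptor plus peptide control and 100% = peptide only without receptor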
CD11b adhes inh: inhibitors of CD11b/CD18 adhesion to fibrinogen, primary screen, K562 cells, luminescence; Integrin beta-2 (Homo sapiens) + Integrin alpha-M (Homo sapiens), P05107+P11215; hit rate 0.54% among 93,000; inhibition, % at 10 µM; ATPlite luminescence; Mn2+ added to activate the integrin;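 active means primary inhibition of 50% or more at 10 µM, then 40% or more on retest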; further: some results filed as inactive read as strong as hits
CD11b adhes enh: enhancers of CD11b/CD18 adhesion to fibrinogen, primary screen, K562 cells, luminescence. Integrin beta-2 (Homo sapiens) + Integrin alpha-M (Homo sapiens), P05107+P11215. ATPlite luminescence. activation, % at 10 µM. hit rate 0.07% among 93,000;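 active means 10 µM primary screen giving 50% or more activity, confirmed by 40% or more on retest at that dose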; further: strong numbers were not always called active; reference of the scale not given here
ERb SRC1 inh: inhibitors of ERβ-SRC1 coactivator interaction, primary screen, biochemical, TR-FRET, ERβ LBD, SRC-1 peptide. AID 633, 2007. hit rate 1.3% among 86,000. inhibition, % at 25.6 µM. TR-FRET ER-beta LBD / SRC1-Cy5 peptide binding; receptor agonist-loaded with 1 µM estradiol;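 active means compounds whose percent inhibition of the receptor-coactivator binding signal exceeds about 50% in the single-dose screen, limit read from the data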;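 further: 0% = receptor plus peptide wells without compound and 100% = peptide-only wells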
PLAP act: PLAP enzyme activators, biochemical, luminescence, HTS; hit rate 1.2% among 96,000; purified PLAP enzyme, luminescent substrate read-out; stronger effect = higher value; AID 696, 2007; activation fold at 20 µM; in the data active means activation fold above about 2
Starred values were filed as active, the others as inactive; / = not tested or not shown; [ ] = dose if it differs, or a comment. The list is partial, so the mix of outcomes need not match the whole.

SMILES	MT1-MMP txn act	ERa SRC1 pot	E coli WT exp	ERa coact inh	CD11b adhes inh	CD11b adhes enh	ERb SRC1 inh	PLAP act
Cc1cccc(-n2c(SCC(N)=O)nnc2-c2ccccn2)c1C	1.1	112	0	-7	-14	-2	-3	1.3
COC(=O)c1ccc(NC(=O)C(=O)N2CCCC2)cc1	/	92	2	-4	15	1	-3	1.2
Cc1ccc(-c2cc(C(=O)Nc3c(C)n(C)n(-c4ccccc4)c3=O)[nH]n2)c(O)c1	1.2	113	-10	-3	-15	4	1	1.4
COc1ccc(S(=O)(=O)N(CCN2CCOCC2)Cc2cc(OC)ccc2OC)cc1	1.1	107	3	-3	40	-1	-6	1.7
COc1cc(C(=O)OC2CCCCC2=O)cc(OC)c1C (stereo unspecified)	1.3	73	5	38	-2	-2	36	1
Cc1nc2cc(NC(=O)NCc3ccco3)ccc2o1	1.3	100	5	15	-3	-2	8	1
CN(C)S(=O)(=O)NCc1ccc2c(c1)OCO2	1	106	10	-5	-5	-4	6	0.8
c1ccc(C2C3=C(Nc4ncnn42)c2ccccc2CCC3)cc1 (stereo unspecified)	1	119	6	2	-12	-3	6	0.8
COc1ccc2cc(C#N)c(N3CCN(Cc4nnnn4CCC(C)C)CC3)nc2c1	1.1	108	-14	5	-8	4	17	1.4
O=C(CCC(=O)c1ccc[nH]1)c1ccc(Cl)cc1	1.1	79[fluorescence artefact?]	-2	40[fluorescence artefact?]	-7	-1	32	0.9
O=C(CCS(=O)(=O)Cc1ccccc1)Nc1nc2c(s1)CCCC2	1	117	-5	-6	-27	5	-11	0.8
CC(=O)NC(=O)NC1OC(=O)C(Cl)=C1Cl (stereo unspecified)	1.1	91[fluorescence artefact?]	19	7	-10	-5	6	1.1
CCCCOc1ncnc2c1[nH]c1ccc(OC)cc12	1.8	105	-12	8	10	-2	-17	1
COC(=O)c1c(NC(=O)Cc2cccs2)sc2c1CCC(C)C2 (stereo unspecified)	1.6	/	-6	/	1	2	/	1
COc1ccc(CNc2nc(NCc3ccc(OC)cc3)n(C(=O)c3ccccc3[N+](=O)[O-])n2)cc1	/	/	-25	/	/	/	/	1.2
O=C(Nc1ccc2c(c1)OCCO2)c1ccc(Cl)c(S(=O)(=O)N2CCCCC2)c1	/	/	-8	/	45	-1	/	1.7
Cc1ccc(S(=O)(=O)CCC(=O)Nc2nc3c(s2)CCCC3)cc1	0.9	97	4	-7	/	/	-12	1
O=C(c1cccs1)N1CCN(c2ncccn2)CC1	1	111	-5	0	-6	-2	-6	0.8
CCN(CC)S(=O)(=O)c1cccc(C(=O)N[C@H](C(=O)OCC(=O)Nc2ccccc2)C(C)C)c1	1.4	92	-16	2	5	2	-4	1.6
Cc1ccc(C2CC(=O)NC3=C2C(=O)CCC3)cc1Br (stereo unspecified)	0.9	92	0	-1[fluorescence artefact?]	/	/	5[fluorescence artefact?]	0.9
CC(C)c1nnc(NC(=O)CCC(=O)NCc2cccs2)s1	1.1	111	1	-12	20	-6	-12	0.9
CCOc1ccc(-c2cc(C(=O)Nc3ccc4c(c3)OCCO4)c3ccccc3n2)cc1	/	/	-8	/	2	25	/	0.9
COc1ccc(-c2noc(CSc3nnc(Cc4ccccc4)n3-c3ccc(Cl)cc3)n2)cc1	1.1	89	-18	-3	18	6	-8	1.5
Cc1cc2ncc(-c3ncc(C(F)(F)F)cc3Cl)cn2n1	/	/	4	/	22	0	/	1
COC(=O)c1nnn(CC(=O)Nc2cccc(Cl)c2)c1C(=O)OC	/	90	-1	-10[fluorescence artefact?]	-14	-3	4[fluorescence artefact?]	0.9
c1ccc(-c2nnc(-c3ccco3)o2)cc1	1.7	123	2	1	-7	3	5	0.9
Cc1cc(C(F)(F)F)nc(SCc2ccc(C(=O)O)o2)n1	1.1	76	6	4	-24	-1	9	1.2
Clc1ccccc1-c1nc(-c2ccccc2)n[nH]1	1.6	104	11	-17	/	/	-20	1
COc1ccc(C(=O)CSc2nnc(Cn3nnc4ccccc43)n2C)cc1	/	/	-2	/	0	8	/	0.7
CCc1nc2n[nH]c(N)c2c2c1CCCC2	1.3	114	11	-8	-12	3	-1	1.3
COc1ccc(-c2n[nH]c(=S)o2)c(OC)c1	/	/	-7	/	20	-6	/	0.8
CSc1nnc2c(n1)[nH]c1c(C)cccc12	1.1	89	-4	-1	8	-7	28	1
N#Cc1c(NC(=O)CSCC(=O)O)sc2c1CCCC2	1	113	-5	-3	-6	-4	1	1
CC(C)c1nc(SCC(=O)N2CCCC2)c2ccccc2n1	1.1	103	3	-6	2	-1	0	1.5
CCSc1nnc(NC(=O)CSc2nc3c(cc2C#N)CCCC3)s1	/	/	-15	/	/	/	/	1
O=C(NC1CCCCC1)C1CCN(c2cnccn2)CC1	1.1	97	-2	3	-3	-1	-7	0.8
O=S(=O)(c1ccc(S(=O)(=O)N(Cc2ccco2)Cc2ccccc2Cl)cc1)N1CCCC1	1.1	122	-8	5	24	20	-3	0.8
O=C(Cn1cnc2sc(-c3ccccc3)cc2c1=O)N1CCOCC1	1.3	85	-2	-19	-13	5	-20	0.9
C=CCNC(=O)Nc1ccc2oc(C)nc2c1	1	110[fluorescence artefact?]	3	15	8	3	86*[fluorescence artefact?]	1.1
Cc1ccc(S(=O)(=O)N(CC(=O)NCCC2=CCCCC2)Cc2ccccc2F)cc1	/	/	-21	/	/	/	/	1
COC(=O)COc1cccc(NC(=O)COc2ccccc2)c1	1.2	118	-1	-7	/	/	-2	1
Cc1ccc(-c2nn(-c3ccccc3)c3[nH]c(=O)c(CNCc4ccccc4)cc23)cc1	1.2	150	/	1[fluorescence artefact?]	/	/	-1[fluorescence artefact?]	/
COc1ccccc1OCc1nnc(SCC(=O)Nc2ccc(C)cc2)n1C	1.1	122	3	-12	-6	0	-9	1
Fc1ccc(-c2cc3nc(-c4ccccc4)cc(N4CCOCC4)n3n2)cc1	1.1	168	-14	37[fluorescence artefact?]	-18	-2	20[fluorescence artefact?]	0.9
CCCCCn1c(=NC(C)=O)c(C#N)cc2c(=O)n3ccccc3nc21	1.2	113	-1	18	-22	-2	20	1.2
COc1ccc(CNc2nc3nc4c(c(=O)n3[nH]2)CCC4)cc1	1.2	95	-7	-5	9	2	-11	1.1
Cc1cc(C)c2nc(NC(=O)C3CCCO3)sc2c1 (stereo unspecified)	1.3	98	5	-2	-46	-2	0	0.8
CN(C)C=NC(=O)/C(C#N)=C1\CCc2ccccc2N1	1.2	109[fluorescence artefact?]	4	13	-8	2	-4	0.9
COc1ccccc1C1CN(c2ccccc2)N=C1c1cccs1 (stereo unspecified)	1.1	98	-11	-7	-21	-2	-1	1.1
CC(C)Oc1cccc(C(=O)NC(=S)Nc2ccc3c4c(cccc24)CC3)c1	/	/	-19	/	23	-3	/	0.9
COc1ccc(Nc2ncccc2C(=O)Nc2ccccc2)cc1	1.1	102[fluorescence artefact?]	2	-15	-6	-4	-14	1
Cc1cc(C)cc(OCC(=O)OCC(=O)NCc2ccco2)c1	/	/	0	/	-11	-2	/	1
N#Cc1ccc(-c2cccnc2)nc1SCc1ccc(Cl)cc1Cl	/	/	-8	/	-12	32	/	0.9
CN=C1S/C(=C\c2ccc(Sc3ccc(Cl)cc3)o2)C(=O)N1C	/	/	-20	/	/	/	/	0.9
Cc1ccc(-c2nc(NCCN3CCOCC3)c3ccccc3n2)cc1	1.5	106	8	-8	-2	6	3	1.3
COc1cc(CC(=O)O)c(C(C)=O)cc1OC	1	/	-1	/	/	/	/	0.8
CC(=O)SC(C[N+](=O)[O-])c1cn(C(C)=O)c2ccccc12 (stereo unspecified)	0.9	71[fluorescence artefact?]	22	-5	51	-6	-14	1.1
Cc1ccc(NC(=O)CN2C(=O)N/C(=C/c3ccc(C)o3)C2=O)cc1	/	/	-10	/	/	/	/	0.9
O=C(Nc1cccnc1)c1ccc(Cl)c(S(=O)(=O)N2CCCCCC2)c1	1.4	99	12	-1	12	-2	-7	1.5
NC(=O)C(c1ccc(Cl)cc1)c1ccc(Sc2ccccc2)nn1 (stereo unspecified)	1.1	77	16	12[fluorescence artefact?]	4	2	7[fluorescence artefact?]	0.7

The final four records of the section before are carried over, then new ones follow:
SMILES	MT1-MMP txn act	ERa SRC1 pot	E coli WT exp	ERa coact inh	CD11b adhes inh	CD11b adhes enh	ERb SRC1 inh	PLAP act
CC(=O)SC(C[N+](=O)[O-])c1cn(C(C)=O)c2ccccc12 (stereo unspecified)	0.9	71[fluorescence artefact?]	22	-5	51	-6	-14	1.1
Cc1ccc(NC(=O)CN2C(=O)N/C(=C/c3ccc(C)o3)C2=O)cc1	/	/	-10	/	/	/	/	0.9
O=C(Nc1cccnc1)c1ccc(Cl)c(S(=O)(=O)N2CCCCCC2)c1	1.4	99	12	-1	12	-2	-7	1.5
NC(=O)C(c1ccc(Cl)cc1)c1ccc(Sc2ccccc2)nn1 (stereo unspecified)	1.1	77	16	12[fluorescence artefact?]	4	2	7[fluorescence artefact?]	0.7
COc1ccc(S(=O)(=O)N(CC(=O)NCCCN(C)C)c2ccc(C)cc2)cc1OC	0.9	110	1	-5	6	-2	0	1.4
O=S(=O)(c1ccc(F)cc1)N1CCCC(CO)C1 (stereo unspecified)	1.2	103	-6	4	/	/	-3	0.9
Nc1ncc(-c2ccccc2)n1CC1CCCO1 (stereo unspecified)	1.1	/	4	/	/	/	/	1.1
CCCOc1ccc(OCCOCCN2CCc3ccccc3C2)cc1	/	/	12	/	8	2	/	1.8
Cc1cc(-c2[nH]nc3c2C(c2ccsc2)C(C#N)=C(N)O3)c(C)s1 (stereo unspecified)	1.1	64[fluorescence artefact?]	2	7	33	38	9[fluorescence artefact?]	1.9
O=C(N/N=C/c1ccc(OC(=O)c2cccs2)cc1)c1cccc(F)c1	/	/	2	/	3	5	/	1.2
O=C(COC(=O)c1ccco1)NCc1ccco1	1.1	110	0	-7	-4	-1	11	0.9
CCCc1cc(-c2nc(N)ncc2-c2ccc3c(c2)OCCCO3)c(O)cc1OC	0.9	57	-6	16	/	/	9	1.4

Single values from the results shown:
Under PLAP act, Nc1ncc(-c2ccccc2)n1CC1CCCO1 (stereo unspecified) has the entry 1.1
Under CD11b adhes inh, O=C(COC(=O)c1ccco1)NCc1ccco1 has the entry -4
Under E coli WT exp, O=S(=O)(c1ccc(F)cc1)N1CCCC(CO)C1 (stereo unspecified) has the entry -6
Under CD11b adhes enh, CCCOc1ccc(OCCOCCN2CCc3ccccc3C2)cc1 has the entry 2
Under PLAP act, Cc1cc(-c2[nH]nc3c2C(c2ccsc2)C(C#N)=C(N)O3)c(C)s1 (stereo unspecified) has the entry 1.9
Under PLAP act, O=C(N/N=C/c1ccc(OC(=O)c2cccs2)cc1)c1cccc(F)c1 has the entry 1.2

Two compounds drawn at random from the list so far, as already listed:
SMILES	MT1-MMP txn act	ERa SRC1 pot	E coli WT exp	ERa coact inh	CD11b adhes inh	CD11b adhes enh	ERb SRC1 inh	PLAP act
O=C(N/N=C/c1ccc(OC(=O)c2cccs2)cc1)c1cccc(F)c1	/	/	2	/	3	5	/	1.2
CCCOc1ccc(OCCOCCN2CCc3ccccc3C2)cc1	/	/	12	/	8	2	/	1.8
